# Source: PubChem BioAssay
# MgrA DNA FP = S. aureus MgrA-DNA binding modulation; 0.13% of 84,000 active; inhibition, %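 (about 10 µg/mL by stock and volumes)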; fluorescence polarization;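 active = above 50% in either of two replicates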;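 also: 0% = protein plus DNA without compound and 100% = DNA alone without protein; higher means less MgrA bound to DNA so lower polarization; one replicate is shown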
# Sa helicase inh = blocks Staphylococcus aureus DNA helicase. purified S. aureus helicase, fluorescence unwinding assay; about half of the hits fall short of the stated cut. inhibition, %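 (tested at about 80 µM)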. 0.05% of 120,000 active. AID 485395;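 active = both duplicates at 50% or more, or one of them with a favoured structure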;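 also: 0% = mean of negative control wells and 100% = mean of positive control wells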
# Active calls of the source: *; . = not tested or not shown.
cpd	SMILES	MgrA DNA FP	Sa helicase inh
1	N#Cc1sc2nccc(Nc3ccccc3)c2c1N	-1.8	.
2	CCCCN1C(=O)c2ccc(C(=O)O)cc2C1=O	.	-19
3	Cc1cc2ccccc2nc1-c1ccccc1	1.0	.
4	O=C(Cc1nc2ccccc2[nH]1)NCc1ccc(Cl)cc1	-0.6	-13
5	CC(=O)NC(NCCC12CC3CC(CC(C3)C1)C2)(C(F)(F)F)C(F)(F)F	-3.1	0
6	O=C(CC1(C(F)(F)F)NCCN1)c1ccco1	2.5	5
7	N#Cc1ccccc1NC(=O)CN1CCN(S(=O)(=O)c2ccc(Br)s2)CC1	.	1
8	C(=Nc1ccccc1)c1ccc(-c2cccs2)s1	.	12
9	CCN(CC)c1ccc(NC(C)C(=O)Nc2ccc(C)cc2)cc1 (centres undefined)	0.0	-25
10	C(=N\n1cnnc1)/c1nc2ccccc2[nH]1	3.6	7
11	COc1ccc(CN2C(=O)C=CC2=O)cc1	1.8	.
12	CCNC(=O)n1nccc1C(C)Oc1ccccc1 (centres undefined)	1.6	.
13	N#CC(=C1CCCCC1)c1nc2ccccc2s1	0.9	-4
14	O=C(Cc1ccccc1)Nc1ccccc1C(F)(F)F	-1.4	14
15	CCN(CC)CCn1c2ccccc2n2cc(C)nc12	.	-8
16	CCc1c(C)nc(SCC(=O)N(C(C)C)C(C)C)[nH]c1=O	1.5	-2
17	CCC(=O)Nc1cc2ccccc2cc1NC(=O)CC	0.2	3
18	COc1ccc(C(=O)Nc2ccc(-c3n[nH]c(=S)o3)cc2)cc1OC	.	-19
19	NS(=O)(=O)c1ccc(CNC(=O)c2ccccc2C(F)(F)F)cc1	.	3
20	C=CCN1C(=O)/C(=C/N(C(C)=O)c2ccccc2)SC1=S	.	21
21	O=C(CSCC(=O)N1CCOCC1)Nc1nc(-c2ccccc2)cs1	.	19
22	Fc1ccc(-c2cc(-c3nc4c5ccccc5ncn4n3)[nH]n2)cc1	.	24
23	N#Cc1ccc(COC(=O)c2cc(=O)[nH]c3ccccc23)cc1	.	-5
24	COC(=O)c1cc(OC)c(OC)cc1NC(=O)CSc1ccc(Cl)cc1	-1.2	.
25	O=C(NC1CCCCNC1=O)c1cnn(-c2ccccc2)c1C(F)(F)F (centres undefined)	-2.2	.
26	COc1ccc(-c2noc(CC(=O)NCCCN3C(C)CCCC3C)n2)cc1 (centres undefined)	-0.7	10
27	CCC1=Nc2cc(C(=O)N3CCN(C(=O)c4ccco4)CC3)ccc2Sc2ccccc21	.	30
28	Nc1ccc(CS(=O)(=O)c2ccc(Cl)cc2)c(Cl)c1	-1.2	.
29	COc1cccc(OCc2nnc(SCC(=O)NC(C)(C)C)o2)c1	-1.4	2
30	CC1=C(C#N)/C(=C/Nc2cccc(Cl)c2)CC(=O)N1	9.3	.
31	Cc1ccc(C2C(C(=O)c3ccco3)=C(O)C(=O)N2CCCN(C)C)o1 (centres undefined)	6.5	7
32	c1ccc(Oc2nc(Oc3ccccc3)nc(Oc3ccccc3)n2)cc1	-1.6	.
33	Cn1nc(C(C)(C)C)cc1NC(=O)Nc1cccc2ccccc12	.	28
34	COc1ccc(C(CNC(=O)Cc2cc(OC)c(OC)c(OC)c2)N2CCCC2)cc1 (centres undefined)	.	-14
35	CC(=O)N(c1ccc(C(F)(F)F)cc1)S(=O)(=O)c1ccc(N2C(=O)CCC2=O)cc1	0.4	.
36	CC(C)[C@H](NC(=O)c1ccccc1)C(=O)N1CCN(Cc2ccccc2)CC1	.	-11

# 2 of the compounds above, with each value named:
28: Nc1ccc(CS(=O)(=O)c2ccc(Cl)cc2)c(Cl)c1
  MgrA DNA FP: -1.2	Sa helicase inh: .

29: COc1cccc(OCc2nnc(SCC(=O)NC(C)(C)C)o2)c1
  MgrA DNA FP: -1.4	Sa helicase inh: 2

# The results go on:
cpd	SMILES	MgrA DNA FP	Sa helicase inh
37	Cn1c(-c2ccccc2O)[n+](C)c2ccccc21	-2.5	3
38	C/C(=N/NC(N)=O)c1ccc2c(c1)Cc1ccccc1-2	-3.2	18
39	CCCCCSc1nc2ccccc2n1Cn1nnc2ccccc2c1=O	.	-13
40	COc1ccc(C2=NOC(CNC(N)=S)C2)cc1 (centres undefined)	1.2	20
41	O=C(Nc1ccc(-c2nc3ccccc3s2)c(O)c1)c1ccc(Cl)c([N+](=O)[O-])c1	0.0	.
42	NC(=O)Nc1ccc(C(=O)OCc2cc(=O)n3cc(Br)ccc3n2)cc1	.	-10
43	O=C(NCC(c1cccnc1)N1CCOCC1)Nc1ccccc1 (centres undefined)	.	7
44	Cc1ccc(/C=N/NC(=O)c2ccc(NS(=O)(=O)c3cccs3)cc2)o1	.	7
45	COc1ccc(CCC(=O)NCCc2cn3ccccc3n2)cc1	3.2	9
46	CCO/C=C(\C#N)c1nc(-c2ccccc2)cs1	.	-45
47	Cc1cccc(OC(C)c2nc(-c3ccccc3)no2)c1 (centres undefined)	.	-20
48	CCC(CC)C(=O)N1CCCN(C(=O)C(CC)CC)CC1	.	15
49	O=C(CC1COc2ccccc2O1)Nc1cccc(C(F)(F)F)c1 (centres undefined)	-3.5	-3
50	COc1ccc(CNC2CCCC2)cc1O	.	4
51	Cc1ccc(C)c(C(=O)Cn2nc(C(=O)O)c3ccccc3c2=O)c1	.	8
52	O=C(CSc1ncccc1C(=O)O)NCCC1=CCCCC1	0.7	13
53	O=C1C=CC(=O)N1c1ccc(C2CCCCC2)cc1	-1.1	.
54	COc1ccc(C(=O)CC(c2ccccc2)C2C(=O)CCCC2=O)cc1 (centres undefined)	.	-1
55	C=CCn1cc(/C=N/N2C(=O)C3C4C=CC(C4)C3C2=O)c2ccccc21 (centres undefined)	-1.0	7
56	CC1=CC(C)(C)n2c(O)c(N=NC(N)=S)c3cc(C)cc1c32	.	-22
57	CCCCOc1ccc(C2(C)CC(=O)NC2=O)cc1 (centres undefined)	2.6	-10
58	Cn1c(C(C#N)C(=O)C(Sc2ccccc2)c2ccccc2)nc2ccccc21 (centres undefined)	.	-4
59	O=c1sc(N2CCN(c3ccc(Cl)cc3)CC2)nc2ccsc12	2.0	2
60	CCOc1ccc(NC(=O)CSc2nccn2-c2ccccc2)cc1	.	7
61	Cc1oc(-c2cccs2)cc1C(=O)O	1.6	.
62	O=C(NCc1ccco1)C1CC(c2ccc(Cl)cc2)=NO1 (centres undefined)	.	24
63	O=C(CSc1ncnc2c1oc1ccccc12)Nc1nccs1	.	5
64	CN(C)c1ccc(CNc2ncn[nH]2)cc1	-3.6	5
65	CCc1cc(Br)ccc1NS(=O)(=O)CC	-1.9	6
66	NS(=O)(=O)c1ccc(O)c(N2C(=O)c3cccc4c(C(=O)c5ccccc5)ccc(c34)C2=O)c1	-0.2	.
67	COC(=O)c1cc(OC)c(OC)cc1NC(=O)C1CCCCC1	.	2
68	CC12CC(NC(=S)N1c1ccccc1)c1ccccc1O2 (centres undefined)	0.6	3
69	Cc1ccc(NC(=O)CSC2=NC(=O)CC(=O)N2)cc1	0.4	11
70	Cc1ccc(C(=O)CSc2nnnn2-c2cccc(C)c2)cc1	.	-12
71	O=C(O)c1ccc(N2C(=O)c3ccccc3C2=O)cc1	.	7
72	Cn1c(SCc2ccccc2Cl)nc2ccccc21	0.6	8
73	COc1ccc(-c2nc(CNS(=O)(=O)c3ccccc3F)cs2)cc1	-0.7	18
74	Clc1cccc(Cl)c1CSc1cccs1	-0.3	.
75	O=C(C1CCN(S(=O)(=O)c2cccc3nsnc23)CC1)N1CCCCC1	.	2
76	O=C(O)c1ccccc1C(=O)c1cccs1	.	-16
77	O=C(CCNS(=O)(=O)c1ccc2c(c1)OCCO2)Nc1nccs1	.	10
78	Cc1cc(=O)oc2cc(NC(=O)c3ccccc3C(=O)O)ccc12	-2.5	.
79	O=C(c1ccccc1)N1CCNCC1	2.5	3
80	Cn1nnnc1SCC(=O)Nc1nccs1	-6.0	12
81	CCCCNC(=O)n1c(=S)oc2cc(Cl)ccc21	.	-7
82	CC(OC(=O)C1COc2ccccc2O1)C(=O)N(C)c1ccccc1 (centres undefined)	.	-7
83	COc1cc(Cl)c(NC(C)=O)c(Cl)c1	0.1	.
84	CNC(=S)NNS(=O)(=O)c1ccc2ccccc2c1	-1.1	5
85	Cc1ccnc(SCc2cccc(C(=O)O)c2)n1	.	-4
86	COc1ccc2nc(Nc3nnc(-c4ccccc4)o3)sc2c1	-0.4	13
87	COCC(=O)OCc1cc(=O)oc2cc(O)ccc12	.	9
88	CC1=CCC2CC1C(C)OC2(C)C (centres undefined)	-2.7	4
89	O=C(N=Nc1c(O)n(CN(Cc2ccccc2)Cc2ccccc2)c2ccccc12)c1ccco1	.	15
90	NC(=O)CN1C(=O)S/C(=C\C=C\c2ccccc2)C1=O	.	-8
91	C/C(=C(\CCOP(=O)(O)O)SC(=O)c1ccccc1)N(C=O)Cc1cnc(C)nc1N	4.6	.
92	O=C(CCNS(=O)(=O)c1ccc2[nH]c(=O)ccc2c1)NC1CCCC1	4.9	13
93	O=C(O)c1cccc(COCC(F)(F)F)c1	-0.8	8
94	CNC(=O)COC(=O)c1ccc(C#N)cc1	.	14
95	CCCNC(=O)C1Sc2nnc(-c3ccccc3)n2NC1c1ccccc1 (centres undefined)	.	-28
96	O=C(O)CSCC(=O)N1CCCc2ccccc21	-2.6	27

# New compounds follow
cpd	SMILES	MgrA DNA FP	Sa helicase inh
97	CC(=O)Nc1ccc(NC(=O)Cn2c(=O)cc(C)c3c(C)nn(-c4cccc(F)c4)c32)cc1	.	-2
98	O=C1/C(=C/C=C/c2ccccc2)SC(=S)N1c1cccc(F)c1	-0.9	7
99	c1ccc(-c2nnc(CN3CCCCCC3)o2)cc1	-2.8	12
100	COc1cc(OC)c(C(=O)CCC(=O)O)cc1OC	-1.5	14
101	Cc1sc2c(c1C)C(=O)NC(/C=C/c1ccc3c(c1)OCO3)N2 (centres undefined)	-1.2	8
102	CN(C)c1nc(N)nc(Cn2c(=O)oc3ccc(Cl)cc32)n1	-2.0	14
103	COc1cc(-c2cc(C(F)(F)F)n3ncc(C(=O)O)c3n2)cc(OC)c1OC	.	23
104	Clc1ccc(OCc2nc3c4cnn(-c5ccc(Cl)cc5)c4ncn3n2)cc1	0.7	4
105	O=C(CSc1nnc(-c2cccs2)o1)NCC1CCCCC1	.	-6
106	O=C(Cc1cccs1)Nc1nnc(SCC(=O)N2CCCCCC2)s1	.	-5
107	CC(C)NC(=O)CC(c1cccs1)N1Cc2ccccc2C1=O (centres undefined)	.	-30
108	CC(C)OC(=O)CSc1nnc(-c2ccccc2)o1	0.2	15
109	CN(C(=O)Nc1ccc(C(C)(C)C)cc1)C1CCCCC1	.	-10
110	COc1ccccc1-c1oc2ccccc2c(=O)c1O	-1.2	.
111	COc1ccc(-c2cc(C(F)(F)F)n3nc(C(=O)NCCCN4CCOCC4)c(Cl)c3n2)cc1	0.7	.
112	Cc1ccc(C2C(C(=O)/C=C/c3ccccc3)=C(O)C(=O)N2CCO)cc1 (centres undefined)	1.5	13
113	OC(CNCc1ccc(-c2cccs2)cc1)C(F)(F)F (centres undefined)	1.6	.
114	O=C(COC(=O)c1n[nH]c2ccccc12)NC1CC1	-1.9	-19
115	O=C(Cc1ccccc1)Nc1ccccc1F	-1.1	.
116	NC(/C=C/c1cc(C(F)(F)F)cc(C(F)(F)F)c1)=N\O	-0.5	.
117	Cc1ccc(-c2nc3s/c(=C/c4cccs4)c(=O)n3n2)cc1	.	-6
118	C#CCOC(=O)Nc1nc(C)oc1C(F)(F)F	.	-14
119	Cc1cc2cc(CNC(=S)Nc3cccc(C)c3C)ccc2[nH]1	-0.5	13
120	COc1cc(OC)cc(C(=O)n2nc(C)c(-c3ccccc3)c2N)c1	.	0

# Entries of single compounds, quoted from the list.
# `O=C(O)CSCC(=O)N1CCCc2ccccc21` as listed: MgrA DNA FP: -2.6; Sa helicase inh: 27
# `CC(C)OC(=O)CSc1nnc(-c2ccccc2)o1` as listed: MgrA DNA FP: 0.2; Sa helicase inh: 15

# Going on with the list:
cpd	SMILES	MgrA DNA FP	Sa helicase inh
121	CCOC(=O)c1c(C)c(C(=O)N2CCCCCC2)c(C)n1C	.	-25
122	C=CCC(c1cc(Cl)ccc1N)S(=O)(=O)c1ccc(C)cc1 (centres undefined)	-1.6	0
123	CCc1ccc(-n2c(SCc3nnc(-c4cccs4)o3)nc3ccccc3c2=O)cc1	.	10
124	COc1ccc(/C=N/n2c(C)cc(C)cc2=O)cc1	3.6	-3
125	O=C(NC1CCS(=O)(=O)C1)C1CCN(c2nccc(C(F)(F)F)n2)CC1 (centres undefined)	.	9
126	N#Cc1cc2c(nc1SCCS(=O)(=O)Cc1ccc(Cl)cc1)CCCC2	2.7	-9
127	Cc1cc(/C=C2\NC(=O)NC2=O)c(C)n1-c1cccnc1	.	-27
128	CC1CCN(C(=O)CN2C(=O)CSc3ncccc32)CC1	-2.6	10
129	COC(Cn1c(-c2cccc(S(=O)(=O)N(C)C)c2)nn(CN2CC(C)CC(C)C2)c1=S)OC (centres undefined)	.	-16
130	C1=CC2/C(=N\Nc3ccccn3)CC2C1 (centres undefined)	.	-9
131	O=c1sc(N2CCN(c3ccccc3F)CC2)nc2ccsc12	.	-31
132	Cn1c(SCc2ccccc2)nnc1C1CCCNC1 (centres undefined)	-0.6	0

# Random excerpt: 4 compounds from above.
cpd	SMILES	MgrA DNA FP	Sa helicase inh
126	N#Cc1cc2c(nc1SCCS(=O)(=O)Cc1ccc(Cl)cc1)CCCC2	2.7	-9
121	CCOC(=O)c1c(C)c(C(=O)N2CCCCCC2)c(C)n1C	.	-25
128	CC1CCN(C(=O)CN2C(=O)CSc3ncccc32)CC1	-2.6	10
127	Cc1cc(/C=C2\NC(=O)NC2=O)c(C)n1-c1cccnc1	.	-27

# Other structures:
cpd	SMILES	MgrA DNA FP	Sa helicase inh
133	COc1ccc(C2SCCN2S(=O)(=O)c2ccc(NC(C)=O)cc2)cc1OC (centres undefined)	-0.1	6
134	Oc1ccccc1C=Nc1cc(C(F)(F)F)ccc1Cl	-2.2	.
135	O=C1/C(=C\c2ccccc2)N=C(c2ccccc2)N1c1ccccc1	-1.7	.
136	O=C(Nc1ccccc1)C1c2cccc[n+]2CC(=O)N1c1ccccc1 (centres undefined)	2.1	4

# These rows are one share of the data; count on the stated rates, not on these rows.
